Six1-Eya2 blk – blocks human Six1 binding to Eya2; activity change, % (concentration not given with the values); AID 651725; 360,000 compounds, 0.56% hits; AlphaScreen GST-Six1/His-Eya2 binding, biochemical; hits give low values; control for the full effect not named in the record; Q15475+O00167; in the data active = activity change below about -65%; inconclusive = about -30% to -65%; inactive = above about -30%; also: % is scaled to controls: 0 for no effect and ±100 for the full control effect
Target sequence (O00167 whole entry, looked up): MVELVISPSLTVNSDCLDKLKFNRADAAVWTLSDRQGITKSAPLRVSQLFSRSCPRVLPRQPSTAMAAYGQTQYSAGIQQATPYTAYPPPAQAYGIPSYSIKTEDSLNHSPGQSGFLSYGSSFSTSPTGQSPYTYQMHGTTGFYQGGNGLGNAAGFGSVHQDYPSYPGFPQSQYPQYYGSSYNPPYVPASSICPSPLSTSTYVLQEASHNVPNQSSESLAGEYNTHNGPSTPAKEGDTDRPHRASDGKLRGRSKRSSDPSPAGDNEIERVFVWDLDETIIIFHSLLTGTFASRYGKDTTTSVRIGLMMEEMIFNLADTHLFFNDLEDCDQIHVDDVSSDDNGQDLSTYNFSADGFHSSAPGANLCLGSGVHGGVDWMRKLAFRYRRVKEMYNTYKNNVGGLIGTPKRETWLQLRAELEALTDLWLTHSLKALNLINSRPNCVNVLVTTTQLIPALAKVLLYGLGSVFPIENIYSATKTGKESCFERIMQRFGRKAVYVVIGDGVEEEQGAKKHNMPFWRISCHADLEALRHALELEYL
Target sequence (Q15475 whole entry, looked up): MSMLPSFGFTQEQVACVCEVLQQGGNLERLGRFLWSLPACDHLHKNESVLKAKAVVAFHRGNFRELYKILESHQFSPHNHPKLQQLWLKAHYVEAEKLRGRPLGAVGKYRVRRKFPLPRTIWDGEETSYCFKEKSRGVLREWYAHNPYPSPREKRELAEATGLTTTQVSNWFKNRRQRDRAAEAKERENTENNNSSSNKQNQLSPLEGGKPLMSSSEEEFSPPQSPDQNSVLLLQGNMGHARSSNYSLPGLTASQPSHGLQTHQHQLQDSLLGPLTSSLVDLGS
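Homogeneous AlphaScreen proximity assay pairing GST-Six1 with His-tagged Eya2 (added as 5X mix: 250 nM and 500 nM) in 50 mM Tris pH 8.0, 300 mM NaCl, 1 mM TCEP. Glutathione donor and nickel acceptor beads; 1 h, 37 °C, dark.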
TRPML1 agonist – activates the human TRPML1 channel; Q9GZU1; TRPML1-expressing cells, Ca2+ dye fluorescence, FDSS; host cell line not named in the record; reference of the full effect not given here; activation, % (no concentration beside the values); 410,000 compounds, 0.12% hits; AID 624414; in the data active = activation above about 50%; inconclusive = about 30% to 50%; inactive = below about 30%; also: 0% is about no effect; the text of the record puts the active cut at 80%
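Agonist activity was taken from a 110 s kinetic Ca2+ dye read on the FDSS after pinning compounds onto TRPML1-DL cells. The cells were seeded at 1,500/well with Tet inducer, incubated about 16 h, then dye-loaded at room temperature.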
TRPML1 inh – blocks the human TRPML1 channel | Q9GZU1 | TRPML1-inducible cells, Ca2+ dye fluorescence, FDSS; hits give low values; inhibition of EC80 agonist-evoked calcium signal | activity change, negative = inhibition, % (no concentration beside the values) | 390,000 compounds, 0.02% hits; in the data active means activity change below about -50%; inconclusive means about -30% to -50%; inactive means above about -30%;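 also: stimulus is agonist 54-4 at its EC80 concentration; % is scaled to controls: 0 for no effect and ±100 for the full control effect; compound concentration not given in the record; the text of the record puts the active cut at -80%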
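Tet-induced TRPML1-DL cells loaded with Ca8 no-wash calcium dye were read kinetically on FDSS. Compound addition was followed by EC80 agonist 54-4 (4 uM final); inhibition was read over 110 s.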
D2 ag – human D2 receptor agonism in beta-arrestin assay. P14416. DiscoveRx PathHunter D2 beta-arrestin, luminescence, 90 min; 100% = 57 uM dopamine signal. activation, % (concentration not given with the values). 360,000 compounds, 0.084% hits. AID 624465; in the data active = activation above about 40%; inconclusive = about 15% to 40%; inactive = below about 15%; also: the text of the record calls up to 30% inactive
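DiscoveRx PathHunter D2 beta-arrestin cells (2,100/well) attached overnight, then compound-stimulated 90 min at 37 C in HBSS/10 mM HEPES/0.1% Tween-20 buffer; beta-galactosidase complementation read by luminescence after 1 h at ambient temperature. Dopamine 57 uM final (EC100) as control.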
CtBP-E1A blk – CtBP/E1A binding inhibition; AlphaScreen GST-E1A/His-CtBP binding, 1536-well; hits give low values; control for the full effect not named in the record; activity change, % (no concentration beside the values); 340,000 compounds, 0.49% hits; in the data active means activity change below about -65%; inconclusive means about -30% to -65%; inactive means above about -30%; also: % is scaled to controls: 0 for no effect and ±100 for the full control effect
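Steps: dispense buffer (Tris pH 8.0, NaCl 300 mM, TCEP 1 mM, BSA, Tween 20); add 5X protein mix (GST-E1A, His-CtBP, 125 nM each); pin 23 nL compound; 2 h at 37 °C, dark; add 5X beads (50 ug/mL); 1 h; read.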
PINK1 expr mod – modulators of PINK1 expression. PINK1 immunofluorescence, high-content cytometry, 24 h. AID 624263. Potency, µM (doses to about 76.6 µM), for inactives: at the highest dose activation (PINK1 increase), usual class: activators. 410,000 compounds, 0.2% hits; active = well fitted activation curve with a large enough effect; inconclusive = small, poorly fitted or top-dose-only effect; inactive = flat fitted curve, though single readings scatter; cell line not stated here;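 also: potency is read from the fitted curve at half-maximal effect; % of control where 0% means no effect; nearly all actives have a fitted effect of over 65% in size; a mitochondrial uncoupler was the plate control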
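Readout is PINK1 immunofluorescence, quantified alongside mitochondrial, cell and nuclear markers by laser-scanning microplate cytometry. Cells from a stable line were exposed to compound titrations (5 concentrations) for 24 hours, with CCCP controls.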
Starred values were filed as active, the others as inactive; ? = inconclusive; · = no result given; [ ] = remark or other dose. Rows were taken by chance; about 1% have a hit in one of these screens.

Compound | Six1-Eya2 blk | TRPML1 agonist | TRPML1 inh | D2 ag | CtBP-E1A blk | PINK1 expr mod
Cc1ccc(S(=O)(=O)N2[C@@H](c3ccccc3)C(C(=O)O)=CC[C@H]2c2ccc(Cl)c(Cl)c2)cc1 | -9.1 | -0.1 | 0.8 | -0.9 | · | 2.5%
O=C(COc1ccc(Cl)cc1)Nc1ccc2oc(=O)ccc2c1 | -1.5 | 0.3 | -9.9 | -0.3 | 6.2 | 2.1%
CNC(=O)NC(=O)C(C)N1CCN(C/C=C/c2ccccc2)CC1 (stereo unspecified) | 21.6 | -0.4 | 8.5 | -0.4 | -10.5 | -0.8%
CCOC(=O)NC(Nc1cc(C)on1)(C(F)(F)F)C(F)(F)F | 4.4 | 0.2 | 10.3 | -2.0 | 7.8 | 0.6%
CSc1ccc(-c2nc3c(C)cccn3c2Nc2ccc3c(c2)OCCO3)cc1 | · | 2.0 | 34.4 | · | · | 1.8%
CCc1ccc(CN2CCC(C(=O)Nc3ccc(Oc4ccccc4)nc3)CC2)o1 | -8.0 | -0.7 | 12.0 | 1.8 | -2.9 | 1.7%
c1ccc(Cn2nnnc2C(c2cccs2)N2CCSCC2)cc1 (stereo unspecified) | -0.4 | 2.1 | 3.8 | -1.8 | -12.8 | 7.1%[38.3 µM]
O=C1Nc2ccc(S(=O)(=O)Nc3ccccc3O)c3cccc1c23 | · | -0.9 | -18.2 | · | · | 1.7%
O=C(Nc1ccc(Cl)c(S(=O)(=O)N2CCOCC2)c1)c1ccc2c(c1)OCO2 | ? | -0.1 | 4.6 | 13.0 | 8.5 | 1.0%
CN(C(=O)CSc1nncn1C)C1CCCN(Cc2ccccc2F)C1 (stereo unspecified) | 10.2 | 0.1 | -12.7 | -1.4 | 6.4 | 1.0%
COC(=O)c1ccc(NC(=O)Nc2ccc3c(c2)nc(C)n3C)cc1 | -5.3 | -0.3 | -11.9 | -3.2 | 3.0 | 0.5%
CC1(C(=O)NC2CCCCC2)CCC(=O)N1CC(F)(F)F (stereo unspecified) | 6.5 | -0.4 | · | -2.5 | 6.7 | 0.7%
O=C(Oc1ccc(-n2cnnn2)cc1)c1ccccc1 | -23.6 | -0.6 | -6.2 | -4.1 | -7.1 | 2.1%
Cc1cc2nc(CSc3ccccc3)cc(=O)n2[nH]1 | 2.1 | -0.9 | 12.6 | -1.7 | -0.1 | 2.1%
COc1ccc(-c2c(-c3ccc(OC)nc3)c3ccccc3n2C)cc1 | ? | 0.6 | 49.0 | -1.3 | ? | 11.0%
Oc1c(C(c2ccccc2)N2CCN(Cc3ccccc3)CC2)sc2ncnn12 (stereo unspecified) | -8.0 | -0.3 | 5.0 | -4.3 | -12.5 | 0.9%
CCOc1ccccc1NC(=O)c1cccc(NC(=O)C2CCCC2)c1 | -8.0 | 1.1 | 31.4 | 0.1 | -12.5 | 0.9%
COc1ccc(/C=C2/SC(=O)N(CCNC(=O)CC(NC(C)=O)c3ccccc3)C2=O)cc1 (stereo unspecified) | 5.2 | 1.1 | 7.8 | -0.5 | -0.4 | 16.3%
Cc1cc(C(=O)CN2C(=O)NC3(CCCCC3)C2=O)c(C)n1C | 2.1 | 1.5 | -22.7 | 6.0 | 1.8 | -1.6%
C=CCC1(CC=C)CCCN1C(=O)CC1C(=O)NCCN1Cc1cccc(OC)c1OC (stereo unspecified) | -2.4 | 0.4 | -0.1 | -1.0 | 2.7 | 0.3%
CCOC(=O)N1CCN(C(=O)COc2ccccc2Cl)CC1 | 1.0 | 0.9 | 22.3 | 1.5 | 7.7 | 0.6%
CCOC(=O)/C=C1/SCC(=O)N1CC(=O)Nc1ccc2c(c1)CCC2 | 1.7 | 1.3 | -3.0 | -0.4 | 11.1 | 1.6%
Cc1noc(C)c1S(=O)(=O)N1CCCC(C(=O)N2CCc3ccccc3C2)C1 (stereo unspecified) | 1.1 | 2.1 | -2.9 | -2.6 | 3.7 | -2.2%
COc1ccc(OCC(=O)NC(=S)Nc2ccc(S(=O)(=O)Nc3cc(C)on3)cc2)cc1 | 3.7 | 0.4 | 17.6 | -1.7 | -5.6 | 2.4%
CCc1ccccc1NC(=O)c1ccc2c(O)c(S(=O)(=O)c3ccc(OC)cc3)c(=O)[nH]c2c1 | 0.2 | 0.5 | 33.6 | 3.2 | 0.0 | -1.6%
COCCNC(=O)C1(C)CCN(C(=O)c2ccc3sccc3c2)C1 (stereo unspecified) | 0.9 | -0.7 | · | -5.8 | -4.7 | 1.5%
C[C@@H](NC(=O)c1ncn2c1C(=O)NC[C@@H]2C)c1ccccc1 | -16.6 | 0.0 | 5.9 | -0.1 | -11.6 | -0.5%
O=C(O)CCC(=O)Nc1ccc2c(c1)oc1ccccc12 | -0.2 | 0.0 | 2.0 | 0.3 | -1.4 | 2.2%[38.3 µM]
O=C(CSCc1cnn(-c2ccccc2)c1-n1cccc1)NCc1cccs1 | -4.1 | 2.3 | -3.4 | -1.4 | -15.0 | -1.4%
COC(=O)Cc1ccc(NC(=S)NCCO)cc1 | -2.2 | 0.2 | 34.1 | 1.0 | 4.0 | -0.3%
CCOC(=O)c1cccc(NC(=O)CSc2nnc(C)n2CC2CCCO2)c1 (stereo unspecified) | 1.3 | 1.2 | 4.4 | -1.9 | 2.6 | -0.5%
O=C(c1cccs1)n1nc(-c2ccco2)nc1SCc1ccccc1 | 0.2 | -0.4 | 22.0 | -4.5 | 11.5 | -1.3%
O=S(=O)(c1ccccc1)c1cnc(-c2ccccc2)nc1N1CCCC1 | 11.2 | 0.3 | -21.3 | -6.5 | · | 3.6%
Oc1ccc(Nc2nc(Cl)nc(NCc3ccco3)n2)cc1 | -7.9 | 1.5 | -6.5 | -2.6 | -26.1 | ?
COC(=O)c1cn(-c2ccccc2)nc1-c1cccnc1 | 0.1 | 1.0 | -5.8 | -4.1 | 6.8 | -4.6%
N#Cc1ccc(C(=O)N2CCC3CC2c2cc(-c4ccc(F)cc4)ccc23)cc1 (stereo unspecified) | -6.5 | -0.1 | 80.0 | 1.9 | -9.6 | 1.6%
O=C(Nc1ccccc1NS(=O)(=O)c1ccc(F)cc1)C1CCC1 | 5.4 | -0.9 | 2.7 | 0.3 | 4.1 | 7.1%

Bioassay records as filed in PubChem BioAssay.
